Rango dissoc inh: qHTS Assay for Inhibitors of RanGTP induced Rango (Ran-regulated importin-beta cargo) - Importin beta complex dissociation. Snurportin-1 (Homo sapiens) + GTP-binding nuclear protein Ran (Homo sapiens) + Importin …. Biochemical FRET Rango-importin beta, RanGTP-induced dissociation. Potency, µM (top dose mostly 46.1 µM), for the others: at the top dose activity change, negative = inhibition. 0.071% of 340,000 active. AID 540253, 2011; active means falling FRET ratio curve, often poorly fitted, with flat reads before Ran was added; inconclusive means other falling curves, or compound fluorescence or quenching; inactive means flat or rising ratio curve;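 also: potency is read from the fitted curve at half-maximal effect; % of control where 0% means no effect; nearly all actives have a fitted effect of over 45% in size; -100% = wells without RanGTP and RCC1; the record marks most hits as doubtful in a second field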
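Two FRET readings bracket the reaction: one 5 min after compound meets Rango–importin beta, another 45 min after RanGTP-RCC1 (0.6 uM Ran, 0.2 uM RCC1, 2 mM GTP) is added. Only the second defines inhibition.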
miR-21 FLuc: qHTS Assay for Modulators of miRNAs and/orActivators of miR-21; HeLa miR-21 FLuc reporter, luciferase, 48 h; Potency, µM (highest dose often 38.3 µM), inactives show at the highest dose reporter change, positive = more light; 340,000 tested, under 10 active; AID 2288, 2010; active = well fitted rising curve with a large enough effect; inconclusive = small, poorly fitted or top-dose-only effect; inactive = no such curve, though single readings can be large or run the other way;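 also: % of control where 0% means no effect; miR-21 action dims this reporter so a rising signal means less miR-21 action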
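HeLa miR-21-FLuc reporter line, endogenous miR-21; 2000 cells/well in DMEM/10% FBS; compound titration up to ~40uM final, 48 h, 37 degree Celsius; luciferase detection reagent, 15 min lysis, CCD luminescence.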
GLA inh pH 4.5: qHTS Assay for Inhibitors of Human alpha-Galactosidase at pH 4.5 | purified enzyme, 4-MU-alpha-Gal fluorescence, pH 4.5 | activity change, negative = inhibition, % at 105 µM | 230,000 tested, under 10 active; inconclusive = small, poorly fitted or top-dose-only inhibition, or a rising curve; inactive = flat fitted curve, though single readings scatter; no compound was filed as active;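 also: 0% = full activity with enzyme and -100% = basal without enzyme; dose as in the result columns while the protocol names 77 µM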
Target sequence (P06280 whole entry, looked up): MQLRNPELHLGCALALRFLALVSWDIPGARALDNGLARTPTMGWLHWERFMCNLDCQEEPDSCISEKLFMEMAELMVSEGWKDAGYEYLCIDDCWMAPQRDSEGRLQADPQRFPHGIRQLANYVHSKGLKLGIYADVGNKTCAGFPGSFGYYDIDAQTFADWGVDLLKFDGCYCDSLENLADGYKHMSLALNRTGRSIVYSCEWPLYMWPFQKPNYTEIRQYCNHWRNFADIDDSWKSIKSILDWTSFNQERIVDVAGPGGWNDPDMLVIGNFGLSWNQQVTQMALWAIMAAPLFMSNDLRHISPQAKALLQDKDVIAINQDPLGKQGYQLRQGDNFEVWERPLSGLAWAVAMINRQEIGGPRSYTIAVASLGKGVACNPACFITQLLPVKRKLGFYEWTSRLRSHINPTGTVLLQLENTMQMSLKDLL
Rango complex inh: qHTS Assay for Inhibitors of Rango (Ran-regulated importin-beta cargo) - Importin beta complex formation | Rango CFP/YFP FRET sensor + importin beta, 45 min | Potency, µM (series often up to 92.2 µM), for the others: at the top dose inhibition of complex formation | 0.031% of 340,000 active | AID 540263, 2011; active = rising FRET ratio curve, often small or poorly fitted; inconclusive = mostly compound fluorescence or quenching in the first reads; inactive = flat curves in all reads;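 also: potency is read from the fitted curve at half-maximal effect; 0% = DMSO wells and 100% = buffer wells lacking importin beta; nearly all actives have a fitted effect of over 15% in size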
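FRET biosensor Rango (snurportin 1 IBB between N-terminal EYFP and C-terminal Cerulean), 50 nM in PBS/1 mM DTT/0.02% Tween-20/0.1% BSA, preincubated 5 min RT with compound; 0.125 microM importin beta added, 45 min RT, CFP/YFP FRET ratio read.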
Active calls of the source: *; ? = inconclusive; . = no result given; & = joins results of further samples. These rows are one share of the data; rates above refer to the full screens.

SMILES	Rango dissoc inh	miR-21 FLuc	GLA inh pH 4.5	Rango complex inh
COC(=O)c1cc(=O)nc2sc(-c3cccs3)nn12	-6%	0%	-7	0.0%
Cc1ccc(CSc2ccc3nnc(-c4ccccn4)n3n2)cc1	-11%	-14%	-15	3.0%
CCn1nc(C(=O)OCc2c(C)noc2C)c2ccccc2c1=O	-12%	-1%	2	0.6%
O=c1oc2ccccc2cc1-c1csc(Nc2nc3c(F)cccc3s2)n1	-7%	1%	3	?
O=C(O)CSc1nc2sc3c(c2c(=O)n1Cc1ccccc1)CCCCC3	1%	-34%	.	-1.9%
Cc1ccccc1CNC(=O)CCCC(=O)n1nc(C)c2ccccc21	1%	-1%	.	2.1%
Cc1n[nH]c2ccccc2c1=O	0%	.	.	2.0%
CCOC(=O)C1CCN(Cc2nc(-c3ccc(OC)c(OC)c3)no2)CC1	-9%	-1%	-2	0.0%
Cn1cc([N+](=O)[O-])c(C(=O)N/N=C/c2cc3c(cc2Br)OCO3)n1	-15%	0%	-3	-1.6%
COc1ccc(CCNC(=O)c2ccccc2OCc2c(C)noc2C)cc1	5%	.	.	-0.2%
Cn1nnnc1SCC(=O)Nc1ccc(C(=O)N2CCN(Cc3ccccc3F)CC2)cc1	-4%	.	.	-0.6%
O=C(COC(=O)COc1ccc(Cl)cc1)NC1CCS(=O)(=O)C1 (stereo not given)	-17%	.	.	0.0%
CC(C)(Cc1ccccc1)/[N+]([O-])=C\c1ccccc1	23%	.	.	0.7%
CN(C)S(=O)(=O)c1ccc(Cl)c(NC(=O)CSc2nc3c(cc2C#N)C(=O)CC(C)(C)C3)c1	1%	0%	-8	-0.6%
Cc1ccc(C(=O)NC(=C(Cl)Cl)S(=O)(=O)c2ccc(Cl)cc2)cc1	2%	13%	7	-3.6%
O=C(c1cccs1)c1ccc(-c2cccs2)s1	?	-2%	1	?
O=C(NCCc1ccccc1)C1CCCN1C(=O)Nc1ccc(Cl)cc1 (stereo not given)	-14%	-1%	.	0.8%
CCCCCCCC(=O)OC(CN1CCCCCC1)CN1CCCC1=O (stereo not given)	-13%	1%	-6	1.7%
CCOC(=O)C1CCCN(C(=S)Nc2ccc(S(=O)(=O)N3CCOCC3)cc2)C1 (stereo not given)	-17%	.	.	-1.7%
CC(=O)Oc1ccc(C(=O)Nc2ccc(S(=O)(=O)NCC3CCCO3)cc2)cc1 (stereo not given)	-12%	-8%	.	-2.4%
Cc1nc(CNS(=O)(=O)c2cc([N+](=O)[O-])ccc2C)cs1	2%	0%	-6	0.0%
CCCCCCn1c(SCC(C)C)nc2c1c(=O)[nH]c(=O)n2C	-15%	-11%	6	0.4%
CCc1ccc2[nH]c(=O)c(CN(Cc3ccccc3OC)Cc3nnnn3Cc3ccco3)cc2c1	-8%	24%	-2	0.1%
O=C(CN1C2=NCCN2c2ccccc21)c1cccs1	5%	-1%	4	2.3%
COc1ccc(NC(=O)c2c[nH]c(=O)n(-c3ccc(C)c(C)c3)c2=O)c(OC)c1	1%	.	.	0.1%
Going on with the list:
SMILES	Rango dissoc inh	miR-21 FLuc	GLA inh pH 4.5	Rango complex inh
CS(=O)(=O)N1CCc2cc(C(=O)Nc3ccccc3Cl)ccc21	5%	-47%	.	3.6%
Cc1cc(C)cc(NC(=O)CSc2nnc(Cn3c(=O)sc4ccccc43)n2C)c1	1%	-2%	0	2.1%
COC(=O)c1ccc(S(=O)(=O)N2CCN(CCO)CC2)n1C	0%	-1%	-7	-0.9%
O=C(NCC1CCCO1)c1cccc(Br)c1 (stereo not given)	-11%	-18%	4	-0.4%
Cc1cc(NC(=O)Cn2cnc3c(nnn3-c3ccc(C)c(Cl)c3)c2=O)no1	-8%	0%	2	0.3%
COC(=O)C(=NNc1c(C)n(C)n(-c2ccccc2)c1=O)C(=O)OC	-1%	-6%	1	-1.8%
O=C(Cc1ccccc1)NCC1CCCO1 (stereo not given)	-10%	-3%	0	-4.0%
Cc1ccc(S(=O)(=O)N(C)c2ccc(OC(C)C(=O)N3CCCC3)cc2)cc1C (stereo not given)	-10%	.	.	2.4%
Cc1cc(Cl)c(OCCOCCN2CCCCC2)c(Br)c1	21%	-1%	-9	3.4%
COc1ccc(/C=C/C(=O)OCC(=O)c2c(N)n(C)c(=O)n(C)c2=O)c(OC)c1	-3%	-1%	8	-1.2%
CC(C)S(=O)(=O)N1CCN(c2ccnc3cc(Cl)ccc23)CC1	-3%	15%	-6	-0.8%
CCc1ccc(C=NC23CN4CN(CN(C4)C2)C3)s1	-5%	-5%	3	4.0%
Nn1c(SCC(=O)N2CCCCC2)nnc1-c1ccncc1	2%	-8%	0	-0.7%
COc1cccc([C@@H]2Oc3ccc(OC)cc3C(=O)[C@H]2O)c1	-3%	-46%	1&3	-2.1%
O=C(O)COc1c(-c2ccccc2)oc2ccccc2c1=O	1%	1%	-2	-1.5%
CN(C)C(CNC(=O)c1ccc2nccnc2c1)c1ccco1 (stereo not given)	-8%	.	.	?
O=c1c(Cc2ccccc2)c(O)ccn1CCc1cnc[nH]1	-2%	0%	-2	3.5%
CC(=O)NC1C(Oc2ccc3c(C)cc(=O)oc3c2)OC(COC(C)=O)C(OC(C)=O)C1OC(C)=O (stereo not given)	15%	-1%	5	0.3%
Nc1nc(SCC(=O)Nc2ccc(Cl)c([N+](=O)[O-])c2)n[nH]1	2%	.	.	1.5%
COc1cc2cc(C(=O)N[C@@H](Cc3ccccc3)C(=O)O)n(C)c2c(OC)c1OC	11%	4%	.	1.9%
COc1ccc(/C=C(/NC(=O)c2ccccc2)C(=O)NC(Cc2c[nH]c3ccccc23)C(=O)O)cc1 (stereo not given)	-10%	1%	.	-0.9%
c1ccc(-n2nnnc2-c2cnc(-c3ccncc3)nc2-c2cccs2)cc1	3%	-3%	-7	1.2%
O=C(CNC(=S)N(CCCN1CCOCC1)Cc1cccs1)NC1CC1	25%	-8%	0	3.4%
Cc1ccc2c(c1)N(C(=O)CCC(=O)N1CCC(C(N)=O)CC1)CC(C)O2 (stereo not given)	-4%	0%	.	1.1%
Cc1cc2nnc(SCC(=O)N3CCCCC3)n2c(N)n1	14%	1%	4	0.0%
More results follow.
SMILES	Rango dissoc inh	miR-21 FLuc	GLA inh pH 4.5	Rango complex inh
O=S(=O)(CCNCc1cccs1)c1ccc(Cl)cc1	8%	-1%	-7	-3.4%
Cc1ccc(-n2[nH]c(C)c(/C=N/NC(=O)c3ccc([N+](=O)[O-])cc3)c2=O)c(C)c1	.	-1%	1	.
CC(C)(C)C(=O)OC/C(N)=N/OC(=O)c1ccc(Cl)cc1	-10%	-7%	-5	-1.8%
Cc1ccc(-c2cnc(-c3ccncc3)o2)cc1	-19%	-52%	15	-6.3%
COc1ccc(C(=O)COC(=O)CCN2C(=O)C3C4CCC(C4)C3C2=O)cc1 (stereo not given)	16%	0%	-1	-0.7%
COc1ccc(-c2cnc3n2CCCCC3)cc1	8%	3%	4	0.1%
CCOC(=O)N1CCN(C(=O)c2ccc(OCC)cc2)CC1	-22%	1%	5	5.7%
COC(=O)CN1CCN(C(=O)c2ccco2)CC1	20%	0%	.	-2.1%
CC(=O)c1ccc(S(=O)(=O)N(C)CC(=O)NCc2ccco2)cc1	20%	.	.	5.7%
CCOC(=O)C1CCN(C(=O)COc2ccc3c(C)cc(=O)oc3c2)CC1	1%	.	.	6.0%
COc1ccc(N2CCN(C(CNC(=O)C(C)C)c3ccc4c(c3)OCO4)CC2)cc1 (stereo not given)	1%	-6%	.	1.1%
COc1ccc(Nc2nc(NCc3ccco3)nc(N/N=C/c3ccccc3F)n2)cc1	3%	-1%	-2	2.4%
C#Cc1ccc([C@H]2C=C(C(=O)OCC=C)O[C@@H](OCCCCO)C2)cc1	-11%	.	.	-0.9%
CSc1nc(Oc2ccc3ccccc3c2)c2ccccc2n1	6%	-2%	-13	0.0%
NS(=O)(=O)c1ccc(CCNC(=O)c2nc(CS(=O)(=O)c3ccc(Cl)cc3)no2)cc1	4%	5%	.	-4.6%
O=c1cc(CN2CCN(c3ccccc3F)CC2)c2cc3c(cc2o1)CCCC3	11%	-11%	-1	-5.0%
Cc1ccc(NCc2nnc(SCC(=O)Nc3cc(C)on3)n2C)cc1	4%	-5%	3	-4.0%
C/C(=C\c1cccc(Br)c1)C(=O)c1c(C)cc(C)[nH]c1=O	-1%	-1%	.	-0.4%
CC(=O)c1cccc(OCc2cc(C(=O)N(C)CCC3CCOCC3)no2)c1	0%	-60%	.	-3.2%
CC(=O)c1ccc(N(C(=O)CNC(=O)c2cccs2)C(C(=O)NCC2CCCO2)c2ccccc2)cc1 (stereo not given)	-15%	0%	.	2.3%
COc1ccc(NC(=O)CN2C(=O)c3ccccc3S2(=O)=O)cc1OC	7%	2%	.	4.0%
COC(=O)c1cc(S(=O)(=O)NCc2ccccc2)c[nH]1	7%	0%	.	-2.3%
CC1CCc2cc(F)ccc2N1C(=O)C1(C)CC1(Cl)Cl (stereo not given)	1%	-1%	1	0.0%
CCOC(=O)C(CCc1ccccn1)c1ccccc1 (stereo not given)	0%	.	.	0.2%
CC(C)C(=O)Nc1ccc2c(c1)C(=O)NC2=O	-7%	-4%	-2	-5.3%
More results
SMILES	Rango dissoc inh	miR-21 FLuc	GLA inh pH 4.5	Rango complex inh
O=C1CSC(=S)N1c1ccc(O)cc1	2%	0%	.	-0.9%
O=C(Nc1cc(C(F)(F)F)ccc1Cl)c1ccc(NC(=O)C(F)(F)F)cc1	-3%	-32%	-4	-4.7%
COc1ccc(C(=O)Nc2cc(C(=O)c3ccccc3)c(C)oc2=O)cc1	-3%	?	0	-4.2%
O=C(NCC(=O)N1CC(O)CC1C(=O)N1CC(O)CC1C(=O)OCc1ccccc1)OCc1ccccc1 (stereo not given)	-1%	-2%	8	1.4%
O=[N+]([O-])c1cc(-c2csc(NC(CO)c3nc4ccccc4n3CCOCCO)n2)ccc1Cl (stereo not given)	-6%	.	.	-4.7%
O=C(O)c1cc(S(=O)(=O)NCCOc2ccccc2)ccc1Cl	-4%	.	.	3.6%
COC(=O)c1ccccc1NC(=O)N1CCN(S(=O)(=O)c2ccc(Cl)cc2)CC1	12%	0%	1	-0.5%
COc1ccc(CNc2nc3c(c(=O)n(Cc4ccc(F)cc4)c(=O)n3C)n2C)cc1	8%	-5%	-13	-7.6%
O=C(COC(=O)c1cc([N+](=O)[O-])ccc1N1CCOCC1)Nc1cc(F)ccc1F	-11%	.	.	?
NC(=O)c1cc(S(=O)(=O)NCCc2ccc(S(N)(=O)=O)cc2)cs1	14%	0%	.	?
NC(=O)[C@H]1CC2(CC(c3cccc(NC(=O)CC(c4ccccc4)c4ccccc4)c3)=NO2)CN1C(=O)CC(c1ccccc1)c1ccccc1 (stereo not given in full)	-3%	?	-18	0.4%
Cc1ccc(Cl)cc1Nc1nc(N2CCOCC2)nc(N2CCOCC2)n1	-5%	-1%	.	-0.1%
O=C(COC(=O)c1ccccn1)c1cccc(Br)c1	2%	-4%	.	2.9%
Cc1ccc(/C=C/C(=O)NCc2ccc3c(c2)OCO3)o1	7%	-8%	-3	2.5%
Cn1cnc2c1c(=O)n(Cc1ccc(F)cc1Cl)c(=O)n2C	-2%	-7%	-3	4.2%
CCOC(=O)COc1ccc2c(=O)c(-c3ccc(OC)c(OC)c3)c(C(=O)OCC)oc2c1	7%	-1%	1	1.0%

Sorted by formula weight (ascending): part of the list above
SMILES	Rango dissoc inh	miR-21 FLuc	GLA inh pH 4.5	Rango complex inh
Cc1ccc(/C=C/C(=O)NCc2ccc3c(c2)OCO3)o1	7%	-8%	-3	2.5%
O=C(COC(=O)c1ccccn1)c1cccc(Br)c1	2%	-4%	.	2.9%
Cn1cnc2c1c(=O)n(Cc1ccc(F)cc1Cl)c(=O)n2C	-2%	-7%	-3	4.2%
NC(=O)c1cc(S(=O)(=O)NCCc2ccc(S(N)(=O)=O)cc2)cs1	14%	0%	.	?
O=C(Nc1cc(C(F)(F)F)ccc1Cl)c1ccc(NC(=O)C(F)(F)F)cc1	-3%	-32%	-4	-4.7%
O=[N+]([O-])c1cc(-c2csc(NC(CO)c3nc4ccccc4n3CCOCCO)n2)ccc1Cl (stereo not given)	-6%	.	.	-4.7%

Compound activity from PubChem BioAssay.
